RGS16-Gao HTS = modulates binding between human RGS16 and Galphao. bead-based flow cytometry RGS16-Galphao binding, fluorescence; actives lie on both sides. O15492+P09471. binding response (% of control), % at 10 µM. 220,000 tested, 0.38% active;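 active = below 25% or above 175%, edge rows of some plates excepted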;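 note: Galphao activated by GDP with aluminum fluoride before binding; 100% = wells without compound and 0% = beads without RGS; some results beyond the cut were filed as inactive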
Target sequence (O15492 whole entry, looked up): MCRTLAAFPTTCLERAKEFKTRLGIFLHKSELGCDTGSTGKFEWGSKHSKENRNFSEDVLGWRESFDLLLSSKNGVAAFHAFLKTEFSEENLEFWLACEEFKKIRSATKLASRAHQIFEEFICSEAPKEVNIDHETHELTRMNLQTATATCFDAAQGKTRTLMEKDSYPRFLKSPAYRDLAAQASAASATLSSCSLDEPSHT
Target sequence (P09471 whole entry, looked up): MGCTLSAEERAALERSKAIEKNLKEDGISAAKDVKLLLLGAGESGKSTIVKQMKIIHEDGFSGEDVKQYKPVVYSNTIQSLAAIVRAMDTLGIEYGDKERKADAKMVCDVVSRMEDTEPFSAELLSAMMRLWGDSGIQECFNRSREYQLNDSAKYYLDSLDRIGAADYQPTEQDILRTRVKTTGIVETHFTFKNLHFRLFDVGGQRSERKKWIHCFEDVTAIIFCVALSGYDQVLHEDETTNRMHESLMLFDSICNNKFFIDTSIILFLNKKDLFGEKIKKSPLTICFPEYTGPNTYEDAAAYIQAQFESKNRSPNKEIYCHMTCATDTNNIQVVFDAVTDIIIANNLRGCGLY
PKD1 inh = PKD1 (human) kinase inhibition. PKD1 kinase fluorescence polarization assay. Q15139. inhibition, %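 (about 10 µM by stock and volumes)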. 200,000 tested, 0.056% active;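 active = inhibition of 50% or more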;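 note: controls were vehicle for no effect and a reference inhibitor for full effect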
GALR2 agonist = activates the human galanin receptor 2 | O43603 | GALR2-expressing cells, agonist activation read-out | activation, %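 (tested at 5 µM)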 | 140,000 tested, 0.48% active;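 active = above mean plus 3 SD of all compounds, about 5% in these data, not always enough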;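 note: 0% = vehicle buffer wells and 100% = reference agonist at full effect; tested in CHO reporter cells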
Target sequence (O43603 whole entry, looked up): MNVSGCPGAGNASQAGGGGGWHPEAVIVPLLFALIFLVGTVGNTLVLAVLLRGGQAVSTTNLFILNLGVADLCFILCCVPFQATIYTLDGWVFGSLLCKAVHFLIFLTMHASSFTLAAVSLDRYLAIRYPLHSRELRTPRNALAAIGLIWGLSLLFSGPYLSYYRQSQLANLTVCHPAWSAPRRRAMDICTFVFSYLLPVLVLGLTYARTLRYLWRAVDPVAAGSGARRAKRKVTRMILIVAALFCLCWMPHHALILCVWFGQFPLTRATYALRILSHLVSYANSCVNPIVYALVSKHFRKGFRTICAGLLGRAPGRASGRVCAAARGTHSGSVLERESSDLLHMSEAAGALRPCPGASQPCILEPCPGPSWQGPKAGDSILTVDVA
HSV augment = HSV replication enhancement; HSV replication augmentation in cells, fold increase; maximum fold increase; 220,000 tested, 0.005% active; AID 1956;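 active = peak rise of 1.5-fold or more in the series; tested in PC3 cells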;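 note: first round at 10 µM; read as green reporter fluorescence; hits show the peak of a series up to 25 µM; 1 = signal of infected wells without compound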
INS promoter inh = TRM-6 insulin promoter activity inhibition | 130,000 tested, 0.9% active | AID 1273 | TRM-6 cells (human fetal islet line), insulin promoter-eGFP reporter, imaging; reporter expression induced with tamoxifen | inhibition, % at 2 µM;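 active = inhibition above the mean plus 3 SD, with well images judged a real hit on visual review, cut at about 60% in these data, passing the limit was not always enough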
INS promoter inh cell count = also measured in INS promoter inh; calls as there; normalized cell count, %; measured here: cell count, toxicity; reference of the scale not given here;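 cells exposed to compound for 48 h; stained nuclei by imaging scaled within each plate; lower means fewer cells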
HSV augment primary fold = also measured in HSV augment; calls as there; fold increase; compound at 10 µM; measured here: primary screen fold increase 10 uM; tested in PC3 cells;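 GFP signal in the first replicate; 1 = infected wells without compound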
* hit, by the source's call; i = inactive; / = no result given.

Compound,INS promoter inh,PKD1 inh,HSV augment primary fold,INS promoter inh cell count,GALR2 agonist,RGS16-Gao HTS,HSV augment
Cc1ccc(SCCC(=O)NCc2ccco2)cc1,44.8,-7.0,1.2,85.5,-1.9,102.9,i
S=c1[nH]nc(CSc2nc3ccccc3s2)n1C1CCCCC1,0.0,-7.5,0.88,83.5,1.1,117.4,i
CN(Cc1nccn1C)C(=O)CC1C(=O)NCCN1CC(c1ccccc1)c1ccccc1 (stereo unspecified),/,-6.1,0.95,/,/,104.9,i
CCCOc1ccc(CCCN=C(N)N)cc1Cl,/,/,0.88,/,/,97.1,i
COc1ccc(-c2nc(CS(=O)CC(=O)NCc3cccnc3)c(C)o2)cc1 (stereo unspecified),/,-9.2,1.09,/,-0.4,113.0,i
O=C(N/N=C/c1ccc([N+](=O)[O-])o1)C1CC1,5.6,0.4,0.98,117.5,/,103.0,i
CCN(CC)CCCN1C(=O)c2oc3ccccc3c(=O)c2C1c1cc(OC)ccc1OC (stereo unspecified),-35.7,-10.1,0.78,108.9,-5.3,102.1,i
Cc1ccc(C(=O)c2cc([N+](=O)[O-])ccc2N2CCCCC2)c(C)c1,-148.4,-5.6,0.65,6.0,3.5,98.3,i

Fetched by compound from the list above:
Compound,INS promoter inh,PKD1 inh,HSV augment primary fold,INS promoter inh cell count,GALR2 agonist,RGS16-Gao HTS,HSV augment
CCN(CC)CCCN1C(=O)c2oc3ccccc3c(=O)c2C1c1cc(OC)ccc1OC (stereo unspecified),-35.7,-10.1,0.78,108.9,-5.3,102.1,i
Cc1ccc(C(=O)c2cc([N+](=O)[O-])ccc2N2CCCCC2)c(C)c1,-148.4,-5.6,0.65,6.0,3.5,98.3,i

(listing goes on)
Compound,INS promoter inh,PKD1 inh,HSV augment primary fold,INS promoter inh cell count,GALR2 agonist,RGS16-Gao HTS,HSV augment
CCn1cc(-c2cc(C(=O)O)c3ccccc3n2)c(C)n1,-14.3,-10.4,1.01,172.6,0.4,99.2,i
NC(=O)C1=C[C@@H](c2ccc(C(F)(F)F)cc2)C[C@@H](OCc2ccc(CO)cc2)O1,/,2.9,1,/,/,110.4,i
O=C(O)CSCCCC(=O)Nc1ccc(Br)cc1,/,-4.9,/,/,-1.9,103.5,/
CCCC(=O)NC(=S)Nc1cccc(Cl)c1N1CCCCC1,-8.3,9.3,1.09,83.4,-1.0,96.9,i
CCc1cccc2c(C=C(C#N)C#N)cn(CC(=O)N3CCCC3)c12,8.3,-0.9,0.71,142.3,-1.3,100.9,i
CN(C)c1ccc(C(CNS(=O)(=O)c2ccc3ccccc3c2)c2c[nH]c3ccccc23)cc1 (stereo unspecified),-46.4,-1.6,0.79,101.5,-1.0,98.5,i
CCOC(=O)Cc1cc(=O)[nH]c(/N=C(\N)Nc2ccc(OC)cc2)n1,/,/,1.12,/,/,99.7,i
CCOC(=O)c1ccc(NC(=S)N(CCCN2CCCCCC2)Cc2ccco2)cc1,23.3,-15.3,0.9,76.5,1.1,100.8,i
Fc1ccccc1Cc1noc(CN2CCN(Cc3ccc4c(c3)OCO4)CC2)n1,/,1.4,1.16,/,/,99.2,i
CC(=O)CCC(=O)OCC(=O)Nc1ccc(SC(F)F)cc1,/,2.4,0.99,/,/,96.6,i
CCOC(=O)CN(Cc1ccccc1)S(=O)(=O)c1ccc(NC(C)=O)cc1,/,-4.2,0.6,/,0.2,109.3,i
O=C(NCCCN1CCCCCC1)c1ccc(N2CCCC2=O)cc1,-9.1,-0.8,1.01,143.3,-1.8,109.2,i
CC(=O)c1cccc(NC(=O)C2CCCN(S(=O)(=O)c3cccc4cccnc34)C2)c1 (stereo unspecified),/,6.4,0.98,/,-2.4,97.0,i
O=C(N/N=C/c1cccc(Oc2ccccc2)c1)c1ccncc1,-40.0,-2.4,0.85,41.5,/,94.9,i
CCCSc1ncnc2c1oc1ccccc12,/,-10.0,0.86,/,-1.3,105.3,i
Clc1nc2c(-c3ccccc3)nnn2c2ccccc12,/,/,0.59,/,/,103.1,i

14 consecutive records from above:
Compound,INS promoter inh,PKD1 inh,HSV augment primary fold,INS promoter inh cell count,GALR2 agonist,RGS16-Gao HTS,HSV augment
Cc1ccc(C(=O)c2cc([N+](=O)[O-])ccc2N2CCCCC2)c(C)c1,-148.4,-5.6,0.65,6.0,3.5,98.3,i
CCn1cc(-c2cc(C(=O)O)c3ccccc3n2)c(C)n1,-14.3,-10.4,1.01,172.6,0.4,99.2,i
NC(=O)C1=C[C@@H](c2ccc(C(F)(F)F)cc2)C[C@@H](OCc2ccc(CO)cc2)O1,/,2.9,1,/,/,110.4,i
O=C(O)CSCCCC(=O)Nc1ccc(Br)cc1,/,-4.9,/,/,-1.9,103.5,/
CCCC(=O)NC(=S)Nc1cccc(Cl)c1N1CCCCC1,-8.3,9.3,1.09,83.4,-1.0,96.9,i
CCc1cccc2c(C=C(C#N)C#N)cn(CC(=O)N3CCCC3)c12,8.3,-0.9,0.71,142.3,-1.3,100.9,i
CN(C)c1ccc(C(CNS(=O)(=O)c2ccc3ccccc3c2)c2c[nH]c3ccccc23)cc1 (stereo unspecified),-46.4,-1.6,0.79,101.5,-1.0,98.5,i
CCOC(=O)Cc1cc(=O)[nH]c(/N=C(\N)Nc2ccc(OC)cc2)n1,/,/,1.12,/,/,99.7,i
CCOC(=O)c1ccc(NC(=S)N(CCCN2CCCCCC2)Cc2ccco2)cc1,23.3,-15.3,0.9,76.5,1.1,100.8,i
Fc1ccccc1Cc1noc(CN2CCN(Cc3ccc4c(c3)OCO4)CC2)n1,/,1.4,1.16,/,/,99.2,i
CC(=O)CCC(=O)OCC(=O)Nc1ccc(SC(F)F)cc1,/,2.4,0.99,/,/,96.6,i
CCOC(=O)CN(Cc1ccccc1)S(=O)(=O)c1ccc(NC(C)=O)cc1,/,-4.2,0.6,/,0.2,109.3,i
O=C(NCCCN1CCCCCC1)c1ccc(N2CCCC2=O)cc1,-9.1,-0.8,1.01,143.3,-1.8,109.2,i
CC(=O)c1cccc(NC(=O)C2CCCN(S(=O)(=O)c3cccc4cccnc34)C2)c1 (stereo unspecified),/,6.4,0.98,/,-2.4,97.0,i

Additional entries
Compound,INS promoter inh,PKD1 inh,HSV augment primary fold,INS promoter inh cell count,GALR2 agonist,RGS16-Gao HTS,HSV augment
C/C(=C\C(=O)c1ncc(C(F)(F)F)cc1Cl)N(C)C,/,-3.5,1.08,/,/,96.9,i
CCn1c(=O)n(CC(=O)Nc2cc(OC)ccc2OC)c(=O)c2ccccc21,i,-2.6,0.93,88.9,-1.9,113.5,i
Clc1ccc(OCCOCCN2CCc3ccccc3C2)c(Cl)c1,/,9.1,1.09,/,-0.9,114.0,i
CCOC(=O)c1c(NC=O)sc2c1CCC2,3.2,14.1,/,70.9,-0.8,97.1,/
Cc1nn(Cc2ccc(F)cc2)c2sc(C(=O)Nc3nccs3)cc12,6.5,-6.2,0.69,77.3,2.5,116.5,i
COc1cccc(C(C(=O)NC2CCCC2)N(C(=O)c2ccco2)C2CC2)c1OC (stereo unspecified),/,-3.2,0.91,/,-1.2,97.3,i
CCN(CC)CCCN(Cc1cc2cc3c(cc2[nH]c1=O)OCO3)C(=S)Nc1ccccc1OC,/,4.2,0.86,/,/,111.3,i
CCOc1ncccc1C(=O)OCC(=O)N(CC(C)C)C1CCS(=O)(=O)C1 (stereo unspecified),-42.9,-7.5,/,51.4,/,99.1,/
Cc1cc(C)nc(N2CCC(C(=O)Nc3cccc(C(F)(F)F)c3)CC2)n1,/,6.4,1.08,/,-2.5,100.1,i
OCCNc1cc(Cl)ncn1,/,/,0.87,/,/,103.7,i
CC1CCc2sc(C(=O)Nc3nnc(SCc4ccc(F)cc4)s3)cc2C1 (stereo unspecified),-17.1,-5.6,1.07,85.3,-0.1,104.2,i
COc1ccc(NC(C)=O)cc1NC(=O)CN1CCN(CC(=O)Nc2ccccc2Cl)CC1,-128.6,-0.2,0.85,47.6,-1.3,100.2,i
O=C(C1CC(c2ccccc2O)=NO1)N1CCc2ccccc2C1 (stereo unspecified),-21.9,1.0,1.01,134.2,-3.8,103.0,i
O=C(NC(c1ccccc1)c1ccccn1)c1cccc([N+](=O)[O-])c1 (stereo unspecified),-25.0,-1.8,0.76,104.9,/,109.6,i
CCn1cc(CNC(=S)Nc2cccc3ccccc23)cn1,/,-12.7,0.94,/,/,73.8,i
COc1ccc(N2CCN(C(=O)c3ccc(NS(=O)(=O)c4ccc(F)c(F)c4)cc3)CC2)cc1,0.0,-6.9,0.89,122.6,-1.7,98.6,i
CCC1C(=O)NCCN1C(=O)c1ccccc1OC1CCN(S(C)(=O)=O)CC1 (stereo unspecified),-7.3,-0.8,1.09,143.8,/,112.0,i
O=C(c1ccc(S(=O)(=O)Cc2ccccc2F)c([N+](=O)[O-])c1)N1CCCC1,0.0,0.6,0.88,140.1,/,101.1,i
CCc1nc2ccccc2[nH]c1=O,/,/,0.92,/,/,91.6,i
CC(C)CN(CCCNC(=O)CC1Oc2ccccc2NC1=O)CC(C)C (stereo unspecified),/,6.3,1.03,/,-1.1,101.9,i
Cc1cc(-c2nc3ccccc3[nH]2)ccc1N,/,-0.5,0.75,/,/,99.7,i
Cc1ccc(N(C)C(=O)N2CCN(S(=O)(=O)c3ccc(C)cc3)CC2)cc1,/,-7.1,0.93,/,-1.8,105.1,i
Cc1ccc([N+](=O)[O-])cc1-c1ccc(/C=C(\C#N)c2[nH]nc(N)c2C#N)o1,42.9,-12.8,0.58,69.1,2.1,83.7,i
O=C(CSc1ccc(F)cc1)Nc1ccc(C2SCCS2)cc1,/,/,0.83,/,/,86.2,i
O=C1C=C(Nc2ccccc2)c2ccccc2C1=O,/,-2.6,0.7,/,/,104.4,i
NC(=O)c1cccn1Cc1ccccc1Cl,/,-12.1,1.04,/,-1.6,105.0,i
NC1=NC(=O)S/C1=C\c1ccc(F)cc1,28.6,0.7,0.85,137.5,/,123.0,i
Cn1nc(C(F)(F)F)c2cc(C(=O)N3CCOCC3)sc21,/,-7.1,0.92,/,/,100.0,i
Cc1noc(C)c1C(=O)N(C)Cc1ccccc1,/,/,0.98,/,/,100.9,i
C/C(=C\C(=O)c1ccc(C)cc1)Nc1ccc(N2CCOCC2)cc1,0.0,-13.4,0.91,80.8,-1.4,81.7,i
O=C(CSc1nc2ccccc2c(=O)[nH]1)c1ccccc1,-56.2,-4.1,0.88,76.0,-1.9,107.5,i
O=C(NC12CC3CC(CC(C3)C1)C2)N1CC2Cc3cccc(=O)n3C(C2)C1 (stereo unspecified),-8.3,-9.9,0.983,105.8,-1.7,110.2,i
Cc1cc(NCC2CCCO2)n2c(nc3ccccc32)c1C#N (stereo unspecified),-10.7,-5.3,0.84,123.7,3.4,123.0,i
Cn1nnc2c(N3CCCCC3)nccc21,/,-2.9,0.95,/,-2.9,103.1,i
COC(=O)Cc1ccc(NC(=S)NCc2cccc(OC)c2)cc1,/,-1.1,0.84,/,/,100.8,i
NS(=O)(=O)c1ccc(CCNC(=O)COC(=O)CC(c2ccccc2)c2ccccc2)cc1,10.5,2.0,0.94,76.2,/,97.4,i
CC(C)NC(=O)c1c(O)c2ccccc2[nH]c1=O,/,-21.6,0.85,/,0.0,99.8,i
C(=N\N1CCN(Cc2ccccc2)CC1)/c1ccccc1,/,/,1.05,/,/,99.2,i
CN(CC(=O)O)S(=O)(=O)c1cccs1,/,3.0,0.85,/,-3.6,100.8,i
CN(C)CCCCNCCCNC(=O)/C=N\O,-41.9,-10.3,0.72,78.0,-0.6,102.7,i
CCCC12CN3CCN(CC(C3)/C1=N\NC(=O)c1ccc(C(C)(C)C)cc1)C2,36.7,-4.5,0.96,127.1,-1.6,100.6,i
CCc1ccccc1OCCCCN1CCCC1,-5.3,-9.7,/,115.9,0.5,99.9,/

Screens: PubChem, several laboratories
